FGF22 binding – binders of human FGF22 protein, primary screen, FGF22 synaptogenesis inhibitor project, biophysical, thermal shift, single point | calls only at 9.99 µM | Fibroblast growth factor 22 (Homo sapiens), Q9HCT0 | AID 651658, 2012 | recombinant FGF22 thermal shift, SYPRO orange fluorescence; percent of sucrose octasulfate shift, DMSO zero | 340,000 compounds, 1.5% hits;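 active means melting point raised past a set limit in the mean and every replicate; inconclusive means no clear call; three in four hits are not shown here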
UCH37 DUB inh – inhibitors of human UCH37 deubiquitinase, primary screen, biochemical, Ub-AMC cleavage, fluorescence. purified proteasome/UCH37. inhibition, % (test concentration not listed). Ubiquitin carboxyl-terminal hydrolase isozyme L5 (Homo sapiens), Q9Y5K5. 330,000 compounds, 0.33% hits;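 active means mean of two replicates above 20%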;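 further: 0% = compound-free wells with enzyme and 100% = wells lacking proteasome; stock transfer was 100 nL into about 20 µL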
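System: Proteasome-associated human UCH37 deubiquitinase; Input: 0.15 nM proteasome in added enzyme buffer; Also added: Ub-AMC substrate from 1 µM stock; Incubation: 30 min compound-proteasome preincubation then 25 min substrate reaction, room temperature; Detection: fluorescence, ex 355 nm, em 460 nm; Read-out: % inhibition of Ub-AMC cleavage fluorescence; Benchmarks: no-proteasome and no-compound wells.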
LANA-H2B inh – blockers of LANA interaction with H2A/H2B – biochemical, FP readout, HTS, primary screen; Protein LANA1 (Human herpesvirus 8 type P (isolate GK18)), Q9QR71; AID 2629, 2010; 320,000 compounds, 0.6% hits; cell-free LANA-H2A/H2B peptide, fluorescence polarization; inhibition, % (no concentration beside the values); in the data active means inhibition mostly above about 10%, no sharp cut-off; inactive means mostly below about 6.7%;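 further: stock transfer was 7.5 nL into about 10 µL; 0% = median of vehicle wells and 100% = median of positive control wells; one replicate is shown; the record names a cut of 25% in any replicate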
Target sequence (Q9QR71 whole entry, looked up): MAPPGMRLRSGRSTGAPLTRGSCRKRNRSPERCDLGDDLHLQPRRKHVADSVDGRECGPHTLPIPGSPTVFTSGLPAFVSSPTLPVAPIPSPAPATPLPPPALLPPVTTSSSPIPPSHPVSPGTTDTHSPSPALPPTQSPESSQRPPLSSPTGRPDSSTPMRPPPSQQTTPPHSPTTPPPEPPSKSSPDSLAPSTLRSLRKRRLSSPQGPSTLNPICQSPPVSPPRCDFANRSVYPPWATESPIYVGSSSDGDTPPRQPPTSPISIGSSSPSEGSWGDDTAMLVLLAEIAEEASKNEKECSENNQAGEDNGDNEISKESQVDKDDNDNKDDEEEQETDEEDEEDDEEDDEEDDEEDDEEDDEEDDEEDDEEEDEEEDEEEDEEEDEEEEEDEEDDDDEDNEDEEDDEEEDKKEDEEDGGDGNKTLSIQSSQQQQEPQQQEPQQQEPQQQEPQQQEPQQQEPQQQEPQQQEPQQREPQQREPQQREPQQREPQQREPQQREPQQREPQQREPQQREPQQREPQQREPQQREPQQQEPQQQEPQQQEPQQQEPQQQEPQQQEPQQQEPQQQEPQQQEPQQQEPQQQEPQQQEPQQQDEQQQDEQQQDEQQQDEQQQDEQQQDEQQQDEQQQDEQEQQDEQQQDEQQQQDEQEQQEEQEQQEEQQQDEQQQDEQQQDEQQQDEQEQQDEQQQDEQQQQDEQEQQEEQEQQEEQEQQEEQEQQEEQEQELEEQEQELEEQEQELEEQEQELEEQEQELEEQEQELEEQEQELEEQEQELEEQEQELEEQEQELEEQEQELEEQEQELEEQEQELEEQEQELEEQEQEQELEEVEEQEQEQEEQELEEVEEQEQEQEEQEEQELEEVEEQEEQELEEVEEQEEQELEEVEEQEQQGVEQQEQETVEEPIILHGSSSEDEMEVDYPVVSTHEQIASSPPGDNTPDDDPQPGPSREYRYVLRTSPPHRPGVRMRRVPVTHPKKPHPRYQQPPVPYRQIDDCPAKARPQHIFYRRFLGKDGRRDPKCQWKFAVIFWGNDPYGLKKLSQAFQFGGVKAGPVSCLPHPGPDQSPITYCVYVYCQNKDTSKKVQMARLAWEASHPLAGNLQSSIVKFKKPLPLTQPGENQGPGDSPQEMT
ALR H2O2 inh – inhibitors of human ALR sulfhydryl oxidase, primary screen, biochemical, H2O2 detection, HRP-luminol luminescence, single point. 290,000 compounds, 3.8% hits. AID 485317, 2010. purified ALR, DTT oxidation. inhibition, % (no concentration beside the values). FAD-linked sulfhydryl oxidase ALR (Homo sapiens), P55789;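 active means mean and each replicate at 75% or more; inconclusive means only one of the two met; inactive means neither met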;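 further: stock transfer was 7.5 nL into about 7.5 µL; 0% = neutral wells and 100% = wells with inactivated enzyme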
E coli growth – E. coli growth inhibition, primary screen, OD600; Escherichia coli growth, 23 h; active compounds read low; OD600 absorbance (test concentration not listed); 330,000 compounds, 0.21% hits; AID 1053175, 2014;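 active means OD600 absorbance below the run mean of sample wells minus 3.6 SD, in any replicate, cut at about 0.56 in these data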;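 further: stock transfer was 300 nL into about 60 µL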
B2AR ag – beta2AR agonists driving receptor internalization, primary screen, cell-based, FAP fluorogen, flow cytometry; Beta-2 adrenergic receptor (Homo sapiens), P07550; Am2.2-beta2AR cells; reference of the scale not given here; response, % (no concentration beside the values); 340,000 compounds, 0.43% hits; AID 504454, 2011;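 active means response above a set limit, near 3 SD of response in nonfluorescent compounds, cut at about 42% in these data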;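 further: stock transfer was 100 nL into about 11 µL; a reference agonist was the positive control; negative values mostly stem from fluorescent compounds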
HNF4A DNA FP – change in binding of human HNF4A to DNA, primary screen, biochemical, fluorescence polarization, FITC-DNA; Hepatocyte nuclear factor 4-alpha (Homo sapiens), P41235; 1 h; activity change, % at 10 µM; 360,000 compounds, 0.3% hits; AID 1224865, 2016; in the data active means activity change above about 30%, passing the limit was not always enough;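 further: controls were the assay level and a saturating level of protein; the project sought stronger binding though the title names inhibitors; some compounds called inactive have numbers as strong as hits; positive values seem to mean higher polarization but the record does not say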
* = called active by the depositor; i = inactive; ? = inconclusive; · = no result given. These rows are one share of the data; rates above refer to the full screens.

entry	canonical_smiles	FGF22 binding	UCH37 DUB inh	LANA-H2B inh	ALR H2O2 inh	E coli growth	B2AR ag	HNF4A DNA FP
1	COc1cccc(C2C(C#N)=C(N)OC3=C2C(=O)CCC3)c1OC(=O)c1ccco1 (centres undefined)	·	3.2	-4.0	-3.5	0.737	0.4	1.4
2	Cc1ccc(-n2c(SCC(=O)NCc3cccs3)nnc2-c2ccoc2C)cc1	·	2.1	3.5	0.2	0.717	2.4	1.2
3	S=c1[nH]c2cnccc2n1Cc1ccccc1	i	5.7	3.7	·	0.673	12.4	-0.8
4	COc1ccccc1/C=C(\C#N)C(=O)c1cccn1C	i	2.5	-0.7	·	0.695	8.7	1.6
5	Fc1ccccc1CN1CCCC(NC2CCC2)C1 (centres undefined)	i	6.7	-3.0	·	0.693	11.2	2.1
6	CN(CC(=O)Nc1cccc(F)c1)C(=O)c1ccccc1-n1cnnn1	i	0.9	·	·	0.595	0.1	-1.0
7	Oc1ccccc1/C=N/NC1=NCCCCC1	·	·	-0.3	9.3	·	-6.2	0.0
8	COc1cccc2c(SCC(=O)N/N=C/c3ccc(O)c(O)c3)cc(C)nc12	·	·	-3.9	99.6*	·	0.0	-2.5
9	CC(=O)c1ccc(NC(=O)N[C@@H](Cc2ccccc2)C(=O)O)cc1	·	3.7	2.5	-0.8	0.72	3.0	1.2
10	COc1cccc2sc(N(CCCN(C)C)C(=O)COc3ccc(Cl)cc3)nc12	i	3.8	-3.5	-9.4	0.646	10.2	-0.7
11	Cc1cc(NC(=O)CCC(=O)N(Cc2ccco2)C(C(=O)NC2CCCCC2)c2ccccc2)no1 (centres undefined)	·	-4.7	1.3	-5.1	0.742	-5.2	-1.2
12	CCCC(=O)Nc1ccc(NC(=O)c2cccc(OC)c2)cn1	i	2.2	-2.5	-15.7	0.567	26.9	-2.9
13	CCc1nnc(NS(=O)(=O)c2ccc(N/C=C\C(=O)c3ccc(C)cc3)cc2)s1	·	-57.8	0.1	0.0	0.773	6.7	-3.1
14	COCCSc1nc2c(c(=O)[nH]c(=O)n2C)n1CCCc1ccccc1	i	3.2	-0.9	-19.1	0.643	6.3	1.1
15	CC(C)(C)OC(=O)N1CCC[C@H]1c1nnc(SC/C=C/c2ccccc2)o1	·	6.2	-1.9	1.7	0.709	1.1	-2.4
16	N#Cc1c2n(c3c(=O)n(CC(=O)c4ccc([N+](=O)[O-])cc4)cnc13)CCCCC2	i	2.1	-1.6	-5.4	0.73	-1.9	-0.2
17	O=C(Nc1nccs1)c1ccc(COc2c(F)c(F)cc(F)c2F)o1	i	1.7	·	-6.3	0.707	-5.7	1.3
18	O=C(Nc1ccc2oc(=O)ccc2c1)c1cccnc1	·	-20.3	2.6	·	0.69	2.1	0.3
19	CCOP(=O)(OCC)c1nc(-c2cccc3ccccc23)oc1NCc1ccc(OC)cc1	i	i	-6.3	-3.3	0.727	3.6	1.9
20	N#Cc1ccc(C(=O)OCC(=O)NC2CCCC2)cc1	i	1.1	8.5	·	0.605	-4.5	4.7
21	COc1cc(/C=N/Nc2nc3ccccc3[nH]c2=O)ccc1O	i	·	0.0	99.1*	·	2.6	-2.1
22	CCOC(=O)N1CCN(S(=O)(=O)c2ccc(C(=O)Nc3nnc(CSC)o3)cc2)CC1	·	-2.3	-2.0	-2.9	0.694	-2.7	-1.0
23	O=C(c1cc2cc(Cl)ccc2[nH]1)N1CCCCC1	i	2.5	-3.6	-4.2	0.672	2.8	-7.7
24	O=C(c1ccc(F)cc1)N1C2CCC1CC(O)(c1ccc(F)cc1)C2 (centres undefined)	·	-1.3	-1.9	-3.0	0.717	3.0	-9.0
25	COc1ccc(S(=O)(=O)N2CCC(C(=O)Oc3ccc(C)cc3)CC2)cc1OC	i	3.6	·	·	0.695	4.8	-0.8
26	COc1ccc(OC)c(NC(=O)CSc2nc(N)c(-c3ccccc3)c(=O)[nH]2)c1	·	3.5	4.9	-8.7	0.712	-2.3	0.7
27	CCC(=O)Nc1cccc(C2=NOC3(C2)C[C@@H](C(N)=O)N(C(=O)CC)C3)c1 (some centres undefined)	i	-0.4	-1.6	-21.7	·	0.2	4.0
28	CC(=O)c1ccc(NC(=O)CC23CC4CC(C2)CC(n2nnc(C)n2)(C4)C3)cc1	i	3.7	0.9	-5.1	0.699	-5.8	-1.9
29	O=C(Cn1ncc2c1-c1ccccc1OC2)Nc1cccc(Cl)c1	i	5.3	3.4	-37.4	0.743	-0.2	-0.6
30	O=C(NC1CCN(Cc2ccccc2)CC1)c1c(F)cccc1F	·	3.9	-1.9	-2.9	0.673	4.0	-2.9
31	COc1ccc(NC(=O)C2=C(C)NC(=S)NC2c2ccc(O)c(OC)c2)cc1 (centres undefined)	i	3.4	1.2	57.9	0.669	10.9	-3.9
32	CC1CCN(c2ccc3c(c2)S(=O)(=O)c2cccc(C(=O)NC[C@@H]4CCCO4)c2C3=O)CC1	i	5.4	0.5	-5.9	·	0.8	54.3*
33	O=C(NCc1ccc2c(c1)OCO2)c1nc(S(=O)(=O)Cc2ccccc2F)ncc1Cl	i	3.1	-2.3	2.8	0.719	15.8	1.2
34	C/C=C/c1ccc(OCCCCN2CC(C)CC(C)C2)c(OC)c1 (centres undefined)	i	2.0	195.3*	-9.3	0.637	7.4	4.1
35	COc1ccc(CCC(=O)NNC(=O)Cn2nc(C)cc2C)cc1	i	-0.2	-0.5	-3.7	0.671	-0.6	-0.8
36	CC(C)CNC(=O)c1ccccc1NC(=O)CN(c1ccc2c(c1)OCCO2)S(C)(=O)=O	·	0.4	-1.5	-5.7	0.668	15.1	-4.2
37	O=C(CCNS(=O)(=O)c1ccc(Br)s1)N1CCN(c2ccccc2)CC1	·	·	·	·	0.679	-6.4	4.8
38	NC(=O)COc1ccc(C(=O)/C=C2/C(=O)Nc3ccccc32)cc1	i	1.8	3.6	·	0.624	24.5	3.3
39	CCOc1ccc(C2CC(c3ccc(OC)c(OC)c3)n3nc(N)nc3N2)cc1 (centres undefined)	i	2.7	6.3	-8.3	0.742	-2.6	-1.9
40	CSc1nc(-c2ccco2)nn1C(=O)Cc1ccccc1	·	0.8	0.8	1.1	0.705	-4.5	-4.9
41	CC(=O)Nc1ccc(NC(=O)COC(=O)c2n[nH]c3ccccc23)cc1	i	0.1	3.9	-3.6	0.609	0.8	9.7
42	Cc1ccc2c(C)c(C(=O)Nc3c(C)n(C)n(-c4ccccc4)c3=O)oc2c1	·	-3.6	1.3	1.7	0.729	-3.7	0.9
43	O=C(NCCc1ccccc1)C1CCN(S(=O)(=O)c2cccs2)CC1	·	2.3	2.1	-3.4	0.641	-3.8	0.2
44	O=C(NCc1n[nH]c(=S)n1-c1ccc(Br)cc1)c1ccc(S(=O)(=O)N2CCCC2)cc1	i	-3.3	-3.5	91.2*	0.714	0.8	-1.4
45	O=C(NCc1ccco1)C(=O)N1CCCC1	i	2.0	1.4	-6.4	0.707	0.1	3.6
46	O=C(Nc1ccc(S(=O)(=O)N2CCCC2)cc1)c1ccc(Cl)nc1	i	5.6	-0.9	-3.5	0.683	4.9	3.1
47	Cc1nc2ncnn2c(C)c1Cc1cccc(C(F)(F)F)c1	i	5.8	3.4	-5.9	0.693	4.2	3.0
48	COc1ccccc1C(=O)NC(C)C(c1cccs1)N1CCOCC1 (centres undefined)	i	1.8	0.0	-4.0	0.631	8.4	1.3
49	CCSC(=O)NC12CC3CC(CC(C3)C1)C2	i	3.1	2.6	3.5	0.663	-9.0	-1.1
50	C=CCN1C(c2ccccc2)=CS/C1=C(/C#N)c1nnc(N2CCOCC2)n1-c1ccccc1	i	11.0	-0.3	98.6*	0.705	11.5	0.2

(continued)
entry	canonical_smiles	FGF22 binding	UCH37 DUB inh	LANA-H2B inh	ALR H2O2 inh	E coli growth	B2AR ag	HNF4A DNA FP
51	CCC1CCCCN1C(=O)c1sc2ncnc(N(CC)CC)c2c1C (centres undefined)	i	4.1	-1.4	0.1	0.703	4.2	0.2
52	COc1ccc(/C=N/OCC(=O)N=Nc2c(O)[nH]c3ccc(Br)cc23)cc1	i	·	0.9	-7.3	·	-3.5	-2.1
53	CCOC(=O)/C(C(N)=NC(C)C)=C(\O)c1ccccc1	·	4.9	0.8	-2.8	0.705	-5.1	0.1
54	COc1ccccc1N1CCN(C(=O)Cc2c(C(=O)O)[nH]c3ccc(Cl)cc23)CC1	i	3.6	-0.9	?	0.636	0.9	1.5
55	CCOc1ccccc1NC(=O)CN(C)S(=O)(=O)c1ccc(OC)c(C)c1	·	1.2	1.0	-19.1	0.706	3.2	4.2
56	CCOC(=O)c1cccc(COC(=O)c2cccc(-c3nnc(-c4ccccc4)o3)c2)c1	·	-1.2	1.9	-4.1	0.68	11.5	5.0
57	CCNC(=S)N1C2CCC1CC(NC(=O)Nc1ccc(C(=O)OCC)cc1)C2 (centres undefined)	i	-1.0	0.4	35.6	0.704	3.2	3.2
58	COCCCNC(=S)N1CCN(c2nc3ccccc3s2)CC1	i	2.4	3.0	-12.5	0.642	-4.1	2.1
59	COc1ccc(CNC(=O)c2cccc(NC(=O)CC3SC(N4CCCCC4)=NC3=O)c2)cc1 (centres undefined)	i	2.6	2.3	-11.9	0.645	-2.9	-1.9
60	CC1(C)N([O-])C2=C(c3ccccc3C2=O)[N+](=O)C1(C)C	·	1.4	-0.9	4.1	0.706	3.7	0.7
61	COc1ccc2[nH]c(=O)c(C(c3nnnn3C3CCCC3)N3CCN(Cc4ccc5c(c4)OCO5)CC3)cc2c1 (centres undefined)	·	-48.7	-3.5	-10.2	0.711	-0.7	2.3
62	CC[C@]1(C(=O)OC)[C@H]2C(=O)N(C)C(=O)[C@H]2[C@H]2CN=C(SCc3ccc(C)cc3)N21	i	-1.9	·	·	0.683	-3.9	-0.1
63	CCOc1ccccc1NC(=O)Nc1ccc(Br)cn1	i	1.7	-0.4	-9.5	0.728	0.5	-1.1
64	Cc1cccc(C)c1NC(=O)CNc1ccccc1	·	5.0	0.8	16.0	0.73	-3.0	1.3
65	CC(=O)c1c[nH]c2ccc(C)cc2c1=O	·	-17.0	2.4	32.5	0.622	0.9	-0.9
66	CCOC(=O)c1nc(Nc2ccc(Nc3ccccc3)cc2)c2ccccc2n1	i	4.0	·	·	0.667	6.7	-29.2

Screens as filed in PubChem.
